# Vaccinia mCherry – vaccinia inhibition (mCherry reporter). Vaccinia virus mCherry reporter infection, fluorescence; about a quarter of the inactives have no number. Potency, µM (top dose mostly 36.5 µM), without a hit: top-dose activity change, negative = inhibition, most hits filed as inhibitors. 310,000 tested, 0.63% active. AID 720579; active = well fitted inhibition curve with a large enough effect; inconclusive = small, poorly fitted or top-dose-only effect; inactive = no such curve, though single readings can be large or run the other way; tested in A549 cells; note: nearly all actives have a fitted effect of over 35% in size; inactives centre near -10
# Vaccinia Venus – vaccinia inhibition (Venus reporter). Vaccinia virus Venus reporter expression, fluorescence. Potency, µM (titrated, usually from 36.5 µM), for inactives: at the top dose activity change, negative = inhibition, most hits filed as inhibitors. 330,000 tested, 0.46% active. AID 720580; active means well fitted inhibition curve with a large enough effect; inconclusive means small, poorly fitted or top-dose-only effect; inactive means no such curve, though single readings can be large or run the other way; tested in A549 cells; note: nearly all actives have a fitted effect of over 30% in size; inactives centre near -10
# The depositor's hits bear a star; i = inactive; ? = inconclusive; nt = no result given; & = joins results of further samples; [ ] = remark or other dose. % is set by controls: 0 for no effect and ±100 for the full control effect; potency is the fitted concentration of half-maximal effect. Rows were taken by chance. Share with any hit: about 0.86%.
nr | mol | Vaccinia mCherry | Vaccinia Venus
1 | OC(Cc1cccnc1)(c1ccccc1)c1ccccc1 | -3% | -9%
2 | CC1=CC(C)C(CN(CCC[N+](C)(C)C)C(=O)Nc2ccccc2)C(C)C1 (stereo not drawn) | -18% | -5%
3 | CC1(C(=O)NCc2ccccc2)CSCC(=O)N1CCCN1CCOCC1 (stereo not drawn) | -15% | -7%
4 | O=C(C(F)C(F)(F)F)N1CCN(c2ccccc2)CC1 (stereo not drawn) | -13% | -12%
5 | O=C(c1sccc1-n1cccc1)N1CCCC1 | -22% | -22%
6 | COc1cccc(NC2CC(=O)N(CCc3ccccc3)C2=O)c1 (stereo not drawn) | nt | 17%
7 | Nc1ccc2c(S(=O)(=O)O)cccc2c1S(=O)(=O)O | -8% | 0%
8 | COc1ccccc1CNC(=O)CSc1cc(=O)n(C)c2ccccc12 | -10% | -2%&-4%
9 | NC(Cc1ccccc1)c1nc2ccccc2[nH]1 (stereo not drawn) | -10% | -8%
10 | O=C(CCSCc1ccc(Cl)cc1)NC1CCCC1 | i | -10%
11 | CCNC(=O)c1ccc(CSc2nc3cccnc3n2Cc2ccc(OC)cc2)cc1 | i | -9%
12 | O=C(Cn1ncc2c3ccccc3n(Cc3ccc(F)cc3)c2c1=O)NCc1ccccn1 | -22% | -26%
13 | COC(=O)c1ccccc1S(=O)(=O)N1CCC(C(=O)OCC(=O)NCC(F)(F)F)CC1 | i | -6%
14 | CC(C(=O)NCC1CCCO1)c1ccc([N+](=O)[O-])cc1 (stereo not drawn) | i | -18%
15 | CCOc1ccc(C(=O)N[C@H](C(=O)Nc2cccc(S(=O)(=O)N3CCCCC3)c2)C(C)C)cc1 | -7% | -16%
16 | Fc1ccccc1-c1nc2nc3ccccc3nc2n1CC1CCCO1 (stereo not drawn) | 3%[7.34 µM] | -3%[7.34 µM]
17 | CCC12C=CCN3CCC4(c5cc(Br)c(OC)cc5N(C)C4C(O)(C(=O)OC)C1OC(C)=O)C32 (stereo not drawn) | -22% | ?
18 | Cc1c(C(=O)Nc2ccccc2)sc2nc(-c3cc4ccccc4oc3=O)[nH]c(=O)c12 | -3% | 23%
19 | CCCc1nnc(SCc2ccc(OCC)cc2)n1N | 12% | 0%
20 | COC(=O)c1ccc2nc(-c3cccc(Br)c3)c(Cc3cccc(F)c3)n2c1 | -7% | 4%
21 | O=C(OCC(=O)N1CCOCC1)c1ccc(Cl)cc1[N+](=O)[O-] | -15% | 2%
22 | COc1ccc2c(c1)OC[C@H]1[C@H]2N2C(=O)CN(Cc3ccc(C)cc3)C(=O)[C@@]2(C)[C@H]1c1ccccc1 | -16% | -25%
23 | Cc1nnc(SCCOc2ccccc2)s1 | -6% | -13%
24 | CCOC(=O)c1sc(/N=C/c2c(O)ccc3ccccc23)cc1C | i | -10%
25 | Cc1ccc2c(c1)N(C(=O)CCC(=O)Nc1ccc(F)cc1F)CC(C)O2 (stereo not drawn) | -9% | -11%
26 | CCN(CC)c1c(C)nc2ccc(C(=O)Nc3cc(-c4ccccc4)ccc3OC)cn12 | i | 1%
27 | COc1cc(/C=C/C(=O)O)cc(S(=O)(=O)Nc2ccc(S(=O)(=O)N3CCCCC3)cc2)c1OC | -17% | 1%
28 | CCCNC(=O)c1cc(C2CCCCN2S(=O)(=O)c2ccccc2)on1 (stereo not drawn) | -10% | -1%
29 | COC(CNC(=O)c1ccc(N2CCCC2=O)cc1)OC | -18% | -1%
30 | Cc1c(NC(=O)c2ccc(Cl)cc2)cc(C(C)C)c(O)c1S(=O)(=O)c1ccccc1 | -4% | -15%
31 | COc1ccc(C)cc1-n1nnnc1SCC(=O)NC1CCCC1 | -8% | -17%
32 | Cc1ccc(C(=O)Nc2cnc3ccccn3c2=O)cc1 | -5% | -6%
33 | O=C(NCc1ccc(Cl)cc1)C(=O)Nc1ccc(Br)cc1 | -3% | 9%
34 | COC(=O)CSc1nnc(CNc2ccc(Cl)cc2)n1Cc1ccccc1 | -8% | 6%
35 | CC1(C(=O)Nc2cnc3ccccc3c2)CCN1C(=O)CCc1ccccc1 (stereo not drawn) | 15% | -7%
36 | CC1CCC(NC(=O)C2CCN(c3nc4ccccc4s3)CC2)CC1 (stereo not drawn) | -17% | -6%
37 | CC1=CC(C/C(C)=C/COc2ccc3ccc(=O)oc3c2)OC1=O (stereo not drawn) | i | -11%
38 | COc1ccc(Cl)cc1NC(=O)CN1C(=O)C(C)(C)c2cc(S(=O)(=O)N3CCCCC3)ccc21 | -14% | -20%
39 | CCc1ccccc1NC(=O)CCc1c(C)nc2cc(-c3ccccc3)nn2c1C | -20% | 0%
40 | COc1ccc(/C(C)=N/NC(=O)CNC(=O)/C=C/c2ccccc2OC)cc1 | i | 4%
41 | COc1ccc(CN2CCN(C(=O)CCC(=O)Nc3nnc(C(C)C)s3)CC2)cc1F | -11% | -21%
42 | COc1ccc(-c2nnc3ccc(SCC(=O)N4CCN(c5ccccc5)CC4)nn23)cc1 | -12% | -6%
43 | Cc1ccc2nc(-c3ccccn3)cc(C(=O)NCCc3ccc(F)cc3)c2c1 | -12% | -2%
44 | Cc1cccc(N2CCN(C(=O)CCn3c(=O)c4cccn4c4cccnc43)CC2C)c1 (stereo not drawn) | -15% | -10%
45 | C=CCNC(=O)c1ccc(OC2CCN(S(=O)(=O)N(C)C)CC2)cc1 | 3% | -6%
46 | CN(C)S(=O)(=O)c1cccc(NC(=O)COC(=O)C2CCN(C(=O)c3ccc(F)cc3)CC2)c1 | -15% | -5%
47 | C#CCCc1cscc1/C=[N+](\[O-])c1ccc(C(=O)OCC)cc1 | -15% | -12%
48 | CC1(C)N(OCc2ccccc2)C(=O)C(=O)N(OCc2ccccc2)C1(C)C | -14% | -8%
49 | Cn1cc(C(=O)c2ccc(Cl)cc2Cl)cc1C(=O)NN | -23% | -10%
50 | COc1ccc(NC(=O)Nc2cc(C(=O)NCc3ccc(C)cc3)ccc2N2CCCC2)cc1 | -12% | -10%
51 | CC1CCCN(c2nc3ccccc3nc2C(C#N)S(=O)(=O)c2cccs2)C1 (stereo not drawn) | i | -4%
52 | O=C(Nc1cccc2ccccc12)c1nn(C23CC4CC(CC(C4)C2)C3)cc1Br | nt | ?
53 | O=C(C[C@H]1C(=O)N(C2CCCCC2)C[C@@H]1c1ccccc1)Nc1ccc(Br)cc1 | -4% | -6%
54 | CCOC(=O)CCc1c(C)nc2cc(-c3ccc(Cl)cc3)[nH]n2c1=O | -10% | -7%
55 | O=C(NNC(=O)c1cccc2ccccc12)c1ccc(F)cc1 | i | -21%
56 | O=C(CC1Oc2ccc(Cl)cc2NC1=O)NC1CCCCCC1 (stereo not drawn) | -6% | -2%
57 | COC(=O)C1=CO[C@@H](OC2OC(CO)C(O)C(O)C2O)[C@@H]2C(CO)=CC[C@H]12 (stereo partly drawn) | -21% | -6%
58 | Cc1nnc(NC(=O)CCn2cnc3ccccc3c2=O)s1 | i | 2%
59 | COc1ccc(/C=N/OC(=O)c2ccc(Cl)cc2)c(Cl)c1OC | -7% | 2%
60 | COc1ccccc1CCN1CCCC(CN(C)C(=O)CCC(=O)N(C)C)C1 (stereo not drawn) | -20% | 1%

# Going on with the list.
nr | mol | Vaccinia mCherry | Vaccinia Venus
61 | CN(C(=O)c1cccc(NC(=O)Cc2cccc(NC(=O)C3CCN(C(=O)C4CCCC4)CC3)c2)c1)C1CCC1 | -16% | 0%
62 | CCC(CC)C(=O)N(C)c1c(C)nc2c(OCC3CCCCC3)cccn12 | i | -26%
63 | N[C@H](C(=O)O)C(O)C(O)C(O)CO (stereo partly drawn) | -2% | -11%
64 | Cc1ccc(NC(=O)C2CCN(C(=O)c3ccc(F)cc3)CC2)nc1 | -18% | -10%
65 | CCN1CCN(CCCNC(=O)Cn2nc(C)n3c(cc4c(OC)cccc43)c2=O)CC1 | -4% | -6%
66 | CCCSc1cc(=O)n(-c2ccc(F)cc2)nc1C(=O)OCC | -1% | -5%
67 | CCN(CC)CCC(c1ccc2c(c1)OCO2)c1c(O)cc(OC)cc1OC (stereo not drawn) | ? | -16%
68 | Cc1cc(N/C=C(\C#N)S(=O)(=O)c2ccc(Cl)cc2)nc(C)n1 | -13% | -4%
69 | CCCCCOC(=O)c1[nH]c2c(c1C)C(=O)C(C(=O)OC)C(C)C2 (stereo not drawn) | ? | -23%
70 | CCC1CN(C(=O)NCc2ccccc2)c2ccccc2O1 (stereo not drawn) | -5% | -10%
71 | CCOC(=O)C1=CCN(S(=O)(=O)c2ccccc2C)C1c1ccc(Cl)c(Cl)c1 (stereo not drawn) | 10% | 3%
72 | COc1ccc(Cc2c(C(C)(C)C)nc3ccc(Cl)cn23)c(C)c1 | 10% | -5%

# By substructure, the compounds so far containing an NH in an aromatic ring (4)
nr | mol | Vaccinia mCherry | Vaccinia Venus
9 | NC(Cc1ccccc1)c1nc2ccccc2[nH]1 (stereo not drawn) | -10% | -8%
18 | Cc1c(C(=O)Nc2ccccc2)sc2nc(-c3cc4ccccc4oc3=O)[nH]c(=O)c12 | -3% | 23%
54 | CCOC(=O)CCc1c(C)nc2cc(-c3ccc(Cl)cc3)[nH]n2c1=O | -10% | -7%
69 | CCCCCOC(=O)c1[nH]c2c(c1C)C(=O)C(C(=O)OC)C(C)C2 (stereo not drawn) | ? | -23%

# (listing goes on)
nr | mol | Vaccinia mCherry | Vaccinia Venus
73 | Cc1nc2ccccc2nc(C)c1=NOCc1ccccc1Cl | -22% | ?
74 | O=S(=O)(c1cccc2nsnc12)N1CCN(c2ccc(F)cc2)CC1 | -9% | -13%
75 | CC(=O)NC1(c2ccccc2)CCN(c2nc(C)cc(C)n2)CC1 | -9% | -5%
76 | O=C(Nc1ccccc1C(=O)N1CCCCCC1)c1cccc(S(=O)(=O)N2CCOCC2)c1 | -19% | -6%
77 | O=C1C=CC(=O)N1CCCCCCN1C(=O)C=CC1=O | -27% | -26%
78 | COc1ccc(NC(=O)NNC(=O)COc2ccc3cc(Br)ccc3c2)cc1 | -13% | -5%
79 | Cc1ccccc1C(=O)NCC(c1ccco1)N1CCc2ccccc2C1 (stereo not drawn) | i | -10%
80 | CC(=O)Cc1nsc(NC(=O)c2ccccc2)n1 | nt | 6%
81 | Cc1cccc(C(C)n2nnc3ccccc32)c1O (stereo not drawn) | -23% | -15%
82 | O=C(NC1CCCC1)C(c1ccccn1)N(C(=O)c1csnn1)c1ccccc1Br (stereo not drawn) | i | -17%
83 | COc1ccc(C2NC(=S)N3C(c4ccc(OC)cc4)NC(=S)N23)cc1 (stereo not drawn) | -7% | 2%
84 | CCOC(=O)Cc1csc(NS(=O)(=O)c2ccc([N+](=O)[O-])cc2)n1 | i | -5%
85 | O=C(CSc1nccn1C1CCCC1)Nc1cc(C(F)(F)F)ccc1Cl | -5% | -7%
86 | O=C(c1ccco1)N1CCN(C(=O)c2ccc(COc3ccc4c(c3)CCC4)o2)CC1 | -16% | ?
87 | COc1ccc2cc(CCNC(=O)c3cccs3)c(=O)[nH]c2c1 | -6% | -4%
88 | CC(=O)Nc1ccc(N2CCOCC2)c([N+](=O)[O-])c1 | i | -11%
89 | Nc1nc(COc2ccc(F)cc2)nc(N2CCCCC2)n1 | -15% | 0%
90 | O=C(c1cc(-c2cccnc2)nc2ccccc12)N1CCN(S(=O)(=O)c2ccc(Cl)s2)CC1 | ? | -22%
91 | Cc1cc(C)c(Cc2c(C)nc3c(C(=O)NCc4ccco4)cnn3c2C)c(C)c1 | 11% | -3%
92 | COc1ccc(-c2cc(C)no2)cc1S(=O)(=O)Nc1cccc(CN2CCCC2)c1 | -3%[7.34 µM] | -1%[7.34 µM]
93 | COc1ccc2oc(=O)c(-c3csc(/C(C#N)=C/c4ccc(F)cc4)n3)cc2c1 | -6% | 3%
94 | CN1CCC(N(C)C(=O)/C=C/c2cn(-c3ccccc3)nc2-c2cccs2)CC1 | ? | -24%
95 | CC(C)(C)S(=O)(=O)c1cnc(-c2ccccn2)nc1N | i[7.34 µM] | -12%[7.34 µM]
96 | CC(=O)NC12CC3CC(C1)CC(C(=O)N1CCN(S(=O)(=O)c4cccc(F)c4)CC1)(C3)C2 | -1% | -26%
97 | N/C(=N\OC(=O)CCC1CCCC1)c1cccnc1 | -12% | -5%
98 | O=C(C1CCC1)N1CCc2cc(S(=O)(=O)NCc3cccnc3)ccc21 | -29% | -27%
99 | Cc1c(Cl)cccc1-n1ncc(C(=O)NCc2cccs2)c1C1CCN(C(=O)OC(C)(C)C)CC1 | i | -21%
100 | Cc1cccc(N(C)S(=O)(=O)c2nnc(NC(=O)C(C)(C)C)s2)c1 | -13% | -10%
101 | O=C1N(Cc2ccccc2)c2ccc(Cl)cc2C12OCCO2 | i | 3%
102 | CC1=NNC(=O)C1CC(=O)N/N=C/c1ccc(C)o1 (stereo not drawn) | i | -18%
103 | CC1CCCCC1NC(=O)Cn1c(=O)cnc2ccccc21 (stereo not drawn) | -15% | -7%
104 | COc1ccc(S(=O)(=O)N(CC(=O)NCC2CCCO2)Cc2ccccc2)cc1 (stereo not drawn) | -4% | -13%

# Looked up one by one from the list above (six):
nr | mol | Vaccinia mCherry | Vaccinia Venus
104 | COc1ccc(S(=O)(=O)N(CC(=O)NCC2CCCO2)Cc2ccccc2)cc1 (stereo not drawn) | -4% | -13%
102 | CC1=NNC(=O)C1CC(=O)N/N=C/c1ccc(C)o1 (stereo not drawn) | i | -18%
101 | O=C1N(Cc2ccccc2)c2ccc(Cl)cc2C12OCCO2 | i | 3%
100 | Cc1cccc(N(C)S(=O)(=O)c2nnc(NC(=O)C(C)(C)C)s2)c1 | -13% | -10%
98 | O=C(C1CCC1)N1CCc2cc(S(=O)(=O)NCc3cccnc3)ccc21 | -29% | -27%
97 | N/C(=N\OC(=O)CCC1CCCC1)c1cccnc1 | -12% | -5%
